# Vaccinia Venus: qHTS for Stage-Specific Inhibitors of Vaccinia Orthopoxvirus: Venus Reporter Primary qHTS. Vaccinia virus Venus reporter expression, fluorescence. Potency, µM (series often up to 36.5 µM), for inactives: at the top dose activity change, negative = inhibition, most hits filed as inhibitors. 330,000 tested, 0.46% active. AID 720580, 2013; active means well fitted inhibition curve with a large enough effect; inconclusive means small, poorly fitted or top-dose-only effect; inactive means no such curve, though single readings can be large or run the other way; tested in A549 cells; note: nearly all actives have a fitted effect of over 30% in size; inactives centre near -10
# VACV mCherry inh: qHTS for Stage-Specific Inhibitors of Vaccinia Orthopoxvirus: mCherry Reporter Primary qHTS; Vaccinia virus mCherry reporter infection, fluorescence; about a quarter of the inactives have no number; Potency, µM (highest dose often 36.5 µM), for the others: at the highest dose activity change, negative = inhibition, actives largely listed as inhibitors; 310,000 tested, 0.63% active; AID 720579, 2013; active = well fitted inhibition curve with a large enough effect; inconclusive = small, poorly fitted or top-dose-only effect; inactive = no such curve, though single readings can be large or run the other way; tested in A549 cells; note: nearly all actives have a fitted effect of over 35% in size; inactives centre near -10
# Starred values were filed as active, the others as inactive; i = inactive; ? = inconclusive; . = no result given; [ ] = another dose, or the depositor's remark. % is set by controls: 0 for no effect and ±100 for the full control effect; potency is the fitted concentration of half-maximal effect. Rows are unselected; overall some 0.88% were active at least once.
smiles	VACV mCherry inh	Vaccinia Venus
O=[N+]([O-])c1ccc(/C([O-])=C(/C(=S)NCc2ccco2)[n+]2ccccc2)cc1	-9.3%	-12.6%
CCc1nc2c(OCc3ccc(C(=O)OC)cc3)cccn2c1N(C)C(=O)c1ccc(C)cc1	5.0%	1.3%
Nc1nonc1-c1nc2ccccc2n1CC(=O)Nc1ccccc1	-2.1%	-24.9%
COC(=O)c1ccc(CSc2nnc(N)s2)cc1	.	-11.9%
Cc1cccc(NC(=S)N(CCN2CCOCC2)Cc2ccccc2F)c1	-6.7%	-17.6%
Cc1cc(=O)[nH]c2nnc(-c3ccc(Cl)cc3)n12	-13.1%	-11.4%
CCc1nnc(NC(=O)CCC(=O)N2CCN(CCc3ccccc3)CC2)s1	-3.6%	-7.0%
N#CCCNC(=O)CCN1CCOCC1	.	1.0%
Cc1ccc(NC2=CC(=O)CC(c3ccco3)C2)c(N)c1 (centres undefined)	.	?
O=C(CSc1nc(-c2ccco2)cc(C(F)(F)F)n1)NCCN1CCOCC1	i	-16.6%
CCCCCNS(=O)(=O)c1ccc(N2CCCCS2(=O)=O)cc1	-16.6%	-26.9%
Cc1ccc(-c2nnc(C)c(N3CCCC3)n2)cc1	-13.7%	-4.9%
CCOC(=O)C(NC(=O)CC)(Nc1ccccc1OC)C(F)(F)F (centres undefined)	.	-11.1%
O=C(C[C@H]1C/C=C\CC[C@H](Cc2ccc(F)cc2)C(=O)O[C@@H](c2ccccc2)CNC1=O)N[C@H](CO)Cc1ccccc1	-11.2%	?
O=C(CSc1nnc(-c2c[nH]c3ccccc23)n1C1CC1)NC1CCS(=O)(=O)C1 (centres undefined)	i	-1.2%
O=C(NCCCc1ccccc1)C(=O)NCC1OCCN1S(=O)(=O)c1ccccc1 (centres undefined)	-24.3%	-16.7%
COc1ccc(/C=N/NC(=O)c2ccccc2F)cc1CN1CCN(c2ccc(F)cc2)CC1	-13.5%	-8.7%
C=CC[N@@+]12CC[C@]34c5ccccc5N5/C=C6\C7N(/C=C(\C53)[C@@H](C[C@@H]41)/C(=C/CO)C2)c1ccccc1[C@@]71CC[N@@+]2(CC=C)C/C(=C\CO)[C@@H]6C[C@@H]12 (some centres undefined)	i	-10.9%
CS(=O)(=O)c1ccc2nnn(OCC(=O)Nc3ccc(Br)cc3Br)c2c1	-4.8%	-2.1%
COc1ccc(S(=O)(=O)Nc2ccc(-c3cn4c(C)csc4n3)cc2)cc1	-21.6%	-7.2%
Cc1cc2oc(=O)cc(CN3CCN(c4ccc(Cl)c(Cl)c4)CC3)c2cc1Cl	17.9%	-7.0%
C1CCC(NC(=NC2C3CC4CC(C3)CC2C4)N2CCOCC2)CC1 (centres undefined)	?	-12.6%[60.7 µM]
NC(=S)NN=C1C=CCCC1	i	-6.7%
O=C(Cc1ccccc1)Nc1ccc2oc(=O)ccc2c1	-14.3%	-7.3%
COC(=O)c1ccc(N2CCN(C)CC2)c(NC(=O)COc2ccccc2Cl)c1	-19.8%	-12.4%
CCOC(=O)CSc1nnc(-c2cccc(Cl)c2)n1CC	-9.8%	-4.7%
CCN(C1CCCCC1)S(=O)(=O)c1ccc(C(=O)O)cc1	-13.5%	-9.7%
COc1ccc(-c2csc(/C(C#N)=C\c3ccc(OC)c([N+](=O)[O-])c3)n2)cc1	-9.0%	-3.1%
Cn1c(=O)n(C)c2cc(S(=O)(=O)N3CCCCC3)ccc21	15.8%	2.5%
Cc1ccc(-c2nc3c(c(=O)[nH]c(=O)n3CC(C)C)n2CC(C)C)cc1[N+](=O)[O-]	i	-6.9%
CCCCCCOc1ccc(N2C(=O)CC(S/C(N)=N/N=C(\C)c3cccs3)C2=O)cc1 (centres undefined)	i	-4.8%
CCC1CCCCN1S(=O)(=O)c1ccc(NC(=O)c2nc(S(C)(=O)=O)ncc2Cl)cc1 (centres undefined)	?	?
CCC1(CC)COP(=O)(OCC(Cl)CCl)OC1 (centres undefined)	-9.2%	-16.0%
CCOC(=O)c1cccc(NC(=O)CSc2nnc(C)n2Cc2ccccc2)c1	-19.1%	-11.3%
Cc1cc(NC(=O)COC(=O)c2ccc(C)c(C)c2)no1	i	-9.6%
CCOc1ccc(NS(=O)(=O)c2cc3c(cc2C)N(C)CCO3)cc1	?	-20.4%
CCc1nc(C)c(C#N)c2cc(OC)c(OC)cc12	-23.9%	-17.0%
CN(c1ccc(OCC(=O)N2CCN(c3ccc(F)cc3)CC2)cc1)S(=O)(=O)c1cccs1	-7.1%	-15.2%
Cc1cccc(-c2nnc(SCC(=O)C(C)(C)C)n2C)c1	-11.5%	-10.5%
FC(F)(F)c1cccc(-c2nc(COc3ccc(Cl)cc3Cl)no2)c1	-9.8%	-1.2%
Cc1ccc(Nc2nc3nonc3[nH]c2=O)cc1C	.	-23.0%
Fc1ccccc1-c1ccc(-c2nc3ccc(Cl)cn3c2Nc2ccc(Cl)cc2)o1	-14.2%	1.5%
COC(=O)c1cc(OC)c(OC)c(OC)c1NC(=O)c1cc(=O)n(C)c(=O)n1C	-16.8%	-11.3%
C=C1OC(CO)(n2cnc3c(N)ncnc32)C(O)C1O (centres undefined)	12.1%	-9.5%
Cc1ccc(S(=O)(=O)N2CCOCC2)cc1C(=O)OCC(=O)N1CCCCC1	-2.5%	-22.2%
CN(c1cc(Cl)c2c(c1)OCO2)c1cc2c(c3c1ccn3C)C1CCC2C1 (centres undefined)	27.4%	-2.5%
Cc1ccc(C(=O)Nc2ccncc2)c(Cl)c1	-13.1%	-14.6%
CCN(CC(=O)Nc1cccc(F)c1)CC(=O)Nc1ccc2c(c1)OCCO2	i	-10.5%
O=c1cc(CO)oc2ccccc12	i	-18.2%
CCc1ccc(S(=O)(=O)N2CCN(Cc3ccco3)CC2)cc1	-8.7%	-8.8%
COc1cc(-c2cc3nc(C)c(C)c(=O)n3[nH]2)cc(OC)c1OC	i	0.0%
O=c1c2ccccc2nc2sc(Nc3cccc(C(F)(F)F)c3)nn12	-4.8%	-12.7%
O=C(c1ccoc1)N1CCC2(CC1)Oc1ccc(F)cc1C(=O)C21CC(c2cccnc2)=NO1 (centres undefined)	-14.0%	-3.9%
CCCC(=O)N1CCC1(C)C(=O)NS(=O)(=O)c1ccc(C#N)cc1 (centres undefined)	11.5%	6.5%
COc1cc(C(=O)Nc2c(C)cc(C)cc2C)c([N+](=O)[O-])cc1OC	-7.8%	0.8%
CCOc1ccccc1NC(=O)c1oc2ccccc2c1NC(=O)C1CCCO1 (centres undefined)	-9.6%	0.0%
Cc1ccc2[nH]cc(C(=O)CN3CCC4(CC3)OCCO4)c2c1	-23.1%	-11.8%
Cc1cc(C(F)F)n2nc(C(=O)Nc3ccccc3F)nc2n1	.	-14.6%
Cc1nn(-c2nc3ccccc3[nH]2)c(N)c1-c1ccc(Cl)cc1	?	?
COc1cc(CNc2nc(C)c([N+](=O)[O-])c(C)c2C#N)cc(OC)c1	.	-16.3%

# Remaining list, next part:
smiles	VACV mCherry inh	Vaccinia Venus
CCOC(=O)N1CCN(c2cc(C)nc3nc(C)nn23)CC1	8.8%	-2.6%
CCOP(=S)(OCC)N1CC1	i	0.4%
O=C(NC1CCCC1)C(c1ccccn1)N(C(=O)c1csnn1)c1ccccc1F (centres undefined)	-5.4%	-2.1%
CC(C)c1ccc(OCC(=O)N(c2ccccn2)C2CCCCC2)cc1	-19.9%	-16.3%
COC(=O)CN=Cc1c(O)n(-c2ccc(Cl)cn2)c(=O)c2ccccc12	0.6%	4.9%
CC(C)(C)NC(=O)CSc1nc(-c2ccc(F)cc2)cs1	i	-17.9%
COc1ccc(C2CC(=O)N(Cc3ccccc3C)c3c2c(C)nn3-c2nc(C)cc(C)n2)c(OC)c1 (centres undefined)	0.7%	-5.1%
CN(C)CCCNC1=CC(=O)OC12CCCCC2	.	?
Cc1cc(NC(=O)c2cccc(N3C(=O)CCC3=O)c2)no1	-0.5%	-21.8%
Clc1ccc(-c2cn3cccnc3n2)cc1Cl	12.3%	17.2%
CN(C)c1nc(N)nc(/C(C#N)=C/C2CC3C=CC2C3)n1 (centres undefined)	-19.2%	-8.2%
COc1ccc(C(=O)Nc2cc(OC)nc(OC)n2)cc1	-22.0%	-1.4%
CC(=C/c1ccccc1)/C=N/Nc1nc(N2CCCCC2)nc(N2CCCCC2)n1	-9.5%	-1.0%
O=C(CSCc1ccc(F)cc1)N1CCc2c([nH]c3ccccc23)C1c1ccc(Cl)cc1 (centres undefined)	-19.6%	-8.5%
Cn1c(CSc2nc3ccccc3s2)nnc1SCC(=O)NCc1ccccn1	-11.5%	-13.4%
O=C1CCCc2c1cc(C(=O)O)c(=O)n2-c1ccccc1	7.4%	5.6%
CC(SC(=S)N1CCCC1)C(=O)O (centres undefined)	-8.1%	-1.0%
COc1ccc(-n2nnc(-c3nc(-c4cccs4)no3)c2N)cc1	-12.6%[7.34 µM]	-5.8%[7.34 µM]
O=C(c1n[nH]c2c1CCCC2)N1CCC(n2c(C3CCCO3)nc3ccccc32)CC1 (centres undefined)	-5.4%	0.5%
CC(C)(C)OC(=O)N1CCCN(C(=O)Nc2ccccc2)CC1	i	-7.2%
CCOc1ccccc1C(=O)Nc1ccc(S(=O)(=O)Nc2cc(OC)nc(OC)n2)cc1	-3.9%	-9.7%
O=C(c1ccc(C(F)(F)F)cc1)C1CCCN(C2CCSCC2)C1 (centres undefined)	-13.5%	-8.7%
CCOC(=O)[C@]12CCCC=C1N(Cc1ccc3c(c1)OCO3)C(=O)[C@H](CC(=O)NCCC(C)C)C2	20.6%	-9.8%
Cc1ccccc1NC(=O)CSc1cn(CC(=O)N(C(C)C)C(C)C)c2ccccc12	1.0%	-7.5%
O=[N+]([O-])c1ccc(Cl)c(S(=O)(=O)NCC2CCCO2)c1 (centres undefined)	-13.0%	-6.9%
Cc1ccccc1Cn1c(C)cc(C)c(C#N)c1=O	i	6.9%
Cc1cc(C(F)(F)F)nn1CC(=O)Nc1ccc2c(c1)OCO2	i	-4.5%
CC(NC(=O)Cn1c(=O)oc2cc(S(=O)(=O)N3CCCC3)ccc21)c1ccccc1 (centres undefined)	i	5.0%
COCC(=O)Nc1ccc(N2CCN(c3ccccc3)CC2)c(F)c1	-21.4%	-5.5%
COc1ccc(C(=O)Nc2cnc3sc(C)nn3c2=O)cc1	i	-6.5%
Cc1ccc(N2CCN(c3cc(C)nc4c(-c5ccc(Cl)cc5)c(C)nn34)CC2C)cc1 (centres undefined)	-9.5%	-11.0%
Cc1ccc(CNS(=O)(=O)NCc2ccccc2F)cc1	-1.1%	-13.7%
O=C(OCC(=O)N1CCCC1=O)C1CCN(S(=O)(=O)c2c(Cl)cccc2Cl)CC1	-14.1%	-10.0%
Nc1sc2c([n+]1CCCS(=O)(=O)[O-])CCCC2	-7.7%	-12.3%
CCCCOc1ccccc1C(=O)NCCCCCC(=O)O	-10.7%	2.0%
COc1ccc(C2C(C(=O)C(C)(C)C)=C(O)C(=O)N2Cc2ccccc2)cc1 (centres undefined)	-18.9%	-3.2%
O=C(CN(C(=O)CCC(=O)Nc1nccs1)c1cccc(F)c1)NCC1CCCO1 (centres undefined)	.	7.8%
Cc1cc(NC(=O)CN2CCCCCCC2)no1	-15.3%	-9.3%
CC1(c2nnc(Cc3ccccc3)o2)CC(c2cccc([N+](=O)[O-])c2)=NO1 (centres undefined)	?	-19.8%
COc1ccc(NC(=O)c2c(NCc3cccc(OC)c3)sc3c2CCC3)cc1	-18.3%	-11.3%
C#CCOCCOCCOCCNc1nc(N2CCN(C(=O)[C@H]([C@@H](C)O)n3cc(CCCCN)nn3)CC2)nc(N2CCN(C(=O)[C@H](CCCCN)n3cc(CCC(=O)O)nn3)CC2)n1	i	-9.2%
Cn1ccnc1SCC(=O)Nc1sccc1C#N	.	-5.2%
CCCn1c(SCC(=O)Nc2nccs2)nnc1-c1cccnc1	-8.9%	3.3%
O=C(NC1CCS(=O)(=O)C1)c1ccc(-c2ccc(Br)cc2)o1 (centres undefined)	-11.3%	-22.1%
COC(=O)c1c(-c2cccs2)csc1NC(=O)c1cc(OC)cc(OC)c1	-14.3%	-1.2%
COC(=O)c1ccc(CN(Cc2ccc(OC)c(OC)c2)S(=O)(=O)c2ccc(F)c(C(=O)Nc3cc(C)ccc3C)c2)cc1	-13.1%	-7.4%
O=C(C[n+]1cc(-c2ccccc2)n2c1CCCCC2)c1ccc(Br)cc1	-2.6%	-13.2%
CCCc1c(C(=O)O)cnn1-c1ccc(Cl)cc1	i	-11.9%
CSc1ccccc1C(=O)Nc1nc2ccccc2c(=O)[nH]1	-16.0%	-16.6%
Cc1sc2nc(CN3CCCCC3)nc(Nc3ccc4c(c3)OCCO4)c2c1C	i	9.8%

# 2 compounds drawn at random from those above, as already listed:
smiles	VACV mCherry inh	Vaccinia Venus
Cc1sc2nc(CN3CCCCC3)nc(Nc3ccc4c(c3)OCCO4)c2c1C	i	9.8%
COC(=O)c1c(-c2cccs2)csc1NC(=O)c1cc(OC)cc(OC)c1	-14.3%	-1.2%

# Bioassay records from PubChem BioAssay.
